# Screening data: PubChem, several laboratories
# Beta2AR agonist: activates human beta-2 adrenergic receptor causing internalization; P07550; Am2.2-beta2AR cells, FAP receptor internalization, flow cytometry; reference of the scale not given here; response, % (no concentration beside the values); 340,000 tested, 0.43% active;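 active = response above a set limit, near 3 SD of response in nonfluorescent compounds, cut at about 42% in these data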;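 note: stock transfer was 100 nL into about 11 µL; a reference agonist was the positive control; negative values mostly stem from fluorescent compounds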
# RanGTP-Imp inh: disruptors of Ran-importin-beta complex formation – biochemical, FRET, CFP-Ran, YFP-importin-beta, homogeneous, primary screen; cell-free CFP-Ran/YFP-importin-beta FRET ratio; inhibition, % (test concentration not listed); 300,000 tested, 1.1% active;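 active = most replicates above 15%; inconclusive = exactly half above 15%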;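 note: 0% = DMSO wells and 100% = Ran loaded with GDP instead of GTP; wells of about 40 µL received 100 nL stock; the first replicate is given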
# ALR H2O2 inh: blocks human ALR sulfhydryl oxidase activity; 290,000 tested, 3.8% active; purified ALR, DTT oxidation, H2O2 HRP-luminol luminescence; AID 485317; inhibition, % (no concentration beside the values);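 active = mean and each replicate at 75% or more; inconclusive = only one of the two met; inactive = neither met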;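 note: stock transfer was 7.5 nL into about 7.5 µL; 0% = neutral wells and 100% = wells with inactivated enzyme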
# LANA-H2A inh: blocks KSHV LANA binding to histone H2A/H2B. AID 2629. cell-free LANA-H2A/H2B peptide, fluorescence polarization. inhibition, % (concentration not given with the values). 320,000 tested, 0.6% active. Q9QR71; in the data active = inhibition mostly above about 10%, no sharp cut-off; inactive = mostly below about 6.7%;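 note: stock transfer was 7.5 nL into about 10 µL; 0% = median of vehicle wells and 100% = median of positive control wells; one replicate is shown; the record names a cut of 25% in any replicate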
# Target sequence (Q9QR71 whole entry, looked up): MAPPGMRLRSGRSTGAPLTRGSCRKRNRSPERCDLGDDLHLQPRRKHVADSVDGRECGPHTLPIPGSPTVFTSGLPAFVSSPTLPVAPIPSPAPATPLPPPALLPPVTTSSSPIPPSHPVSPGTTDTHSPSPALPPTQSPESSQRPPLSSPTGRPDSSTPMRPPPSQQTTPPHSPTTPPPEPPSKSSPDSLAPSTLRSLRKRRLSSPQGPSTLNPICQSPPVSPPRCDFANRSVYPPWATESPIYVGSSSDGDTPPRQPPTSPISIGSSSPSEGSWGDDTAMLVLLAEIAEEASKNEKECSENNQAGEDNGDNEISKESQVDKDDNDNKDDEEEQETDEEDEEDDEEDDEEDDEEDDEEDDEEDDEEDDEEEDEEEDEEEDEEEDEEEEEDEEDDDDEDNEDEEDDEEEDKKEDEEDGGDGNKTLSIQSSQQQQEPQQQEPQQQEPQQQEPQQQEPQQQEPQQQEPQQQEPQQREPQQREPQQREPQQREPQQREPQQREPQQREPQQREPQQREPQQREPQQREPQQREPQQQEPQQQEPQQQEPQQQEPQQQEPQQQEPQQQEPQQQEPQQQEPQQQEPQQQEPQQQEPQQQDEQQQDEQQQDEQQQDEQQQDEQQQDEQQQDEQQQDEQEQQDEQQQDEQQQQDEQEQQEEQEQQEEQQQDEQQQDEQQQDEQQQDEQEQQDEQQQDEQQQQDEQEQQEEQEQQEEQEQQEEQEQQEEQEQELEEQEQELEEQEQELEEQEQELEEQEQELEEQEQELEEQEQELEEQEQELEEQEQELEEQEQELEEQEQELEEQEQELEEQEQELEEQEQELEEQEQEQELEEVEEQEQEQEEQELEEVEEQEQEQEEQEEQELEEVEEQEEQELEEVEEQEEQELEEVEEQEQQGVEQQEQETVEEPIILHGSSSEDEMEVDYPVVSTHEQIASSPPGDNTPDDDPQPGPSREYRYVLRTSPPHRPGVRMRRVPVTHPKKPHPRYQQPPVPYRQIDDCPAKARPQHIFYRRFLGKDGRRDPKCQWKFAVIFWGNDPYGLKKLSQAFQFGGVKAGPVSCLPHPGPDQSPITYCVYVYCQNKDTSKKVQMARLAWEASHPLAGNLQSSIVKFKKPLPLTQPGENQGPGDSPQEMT
# HNF4A DNA FP: change in binding of human HNF4 alpha to DNA. P41235. HNF4a-FITC DNA binding, fluorescence polarization, 1 h. activity change, % at 10 µM. 360,000 tested, 0.3% active; in the data active = activity change above about 30%, passing the limit was not always enough;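 note: controls were the assay level and a saturating level of protein; the project sought stronger binding though the title names inhibitors; some compounds called inactive have numbers as strong as hits; positive values seem to mean higher polarization but the record does not say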
# Vif TR-FRET: HIV-1 Vif–A3G interaction blockers – biochemical, TR-FRET, GST-Vif 1-94, biotin-A3G peptide, dose response retest, primary screen (AID 1117319). 260,000 tested, 0.57% active. inhibition, %, or IC50 in µM where a hit was titrated. TR-FRET GST-Vif / biotin-A3G peptide binding; higher % means a stronger effect; test concentration not given here; strong numbers were not always called active;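 active = above the screen mean plus three standard deviations and confirmed in dose response; inconclusive = results disagree or hit not tested in dose response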;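 note: Vif residues 1-94 fused to GST binding biotinylated APOBEC3G peptide 110-148; 0% = full assay without inhibitor and 100% = GST in place of GST-Vif; retest series ran down from 100 µM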
# Calb FLC: C. albicans growth modulation with fluconazole | AID 1979 | C. albicans CaCi-2 (fluconazole-resistant clinical isolate) + fluconazole, Alamar Blue growth, 48 h | 300,000 tested, 0.57% active | growth inhibition, % (concentration not given with the values);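 active = most replicates above 75%; inconclusive = exactly half above 75%; inactive = most below 75%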;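 note: all wells also contain fluconazole at 8 µg/ml as a sub-toxic cotreatment; 0% = median of DMSO wells and 100% = median of geldanamycin control wells; wells of about 8 µL received 7.5 nL stock; the first replicate is given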
# Active calls of the source: *; ? = inconclusive; . = not tested or not shown; & = joins results of further samples. Random draw from the library. Share with any hit: about 6.3%.
SMILES,Beta2AR agonist,RanGTP-Imp inh,ALR H2O2 inh,LANA-H2A inh,HNF4A DNA FP,Vif TR-FRET,Calb FLC
CC(C)CNC(=S)N1CCC(NC(=O)c2ccco2)CC1,0.5,0.2,-18.5,4.5,-1.6,31.4%,?
O=C(NN=C1CCCC1)c1ccc(Br)cc1,-4.0,2.4,-1.7,-0.2,2.4,-6.5%,-3.2
O=C(Cn1cnc2ccccc21)OCC(=O)N1CCc2ccccc2C1,2.0,1.6,-11.6,0.5,-1.1,-9.2%,6.0
Cc1ccc(S(=O)(=O)CCC(=O)N2CCN(c3ccc([N+](=O)[O-])cc3)CC2)cc1,-2.9,-3.1,48.8,0.6,-8.0,.,23.0
O=C(N1CCOCC1)C12CC3CC(C1)CC(c1ccccc1)(C3)C2,2.5,-0.5,-0.5,-4.1,-2.0,0.6%,-35.7
CCOc1ccc(CCNC(=O)COC(=O)COc2ccc(Br)cc2)cc1OCC,-5.6,-3.4,0.1,1.1,4.4,-4.8%,0.1
OCc1ccc(N=Nc2ccccc2)cc1,-1.8,3.4,-9.9,7.4,2.8,.,0.4
Cc1cc(Cl)c(C)c(S(=O)(=O)N2CCN(C(=O)C3CCCO3)CC2)c1Cl (stereo not given),-5.3,.,.,-0.7,3.0,.,.
CC1=C(C(=O)Nc2cc(C(=O)NCCCOC(C)C)ccc2C)SCCO1,7.5,?,3.0,-0.9,-0.2,-1.4%,0.6
CCCCc1nc2ccccc2c(NC(=O)CN(CC)CC)c1CCC,-1.7,0.2,-12.5,-1.6,3.0,0.1%,-1.9
N#Cc1c(-c2ccccc2)ccnc1Oc1ccccc1,1.9,5.9,.,6.1,1.7,-7.3%,-18.9
CSc1nsc(NC(=O)OCc2ccc(Cl)cc2)n1,2.6,7.6,.,1.9,1.1,.,47.6
CC(C)OC(=O)CN1C(=O)C(C)(C)Oc2ccc(C(=O)NC(C)(C)C)cc21,-2.1,-0.4,-4.5,1.5,9.1,3.9%,-3.3
O=C(c1ccc2snnc2c1)N1CCCC1,5.6,-1.0,-5.1,-1.7,-1.8,18.5%,-8.9
O=C1N[C@@H](c2ccccc2)COC(=O)[C@@H](Cc2ccc(F)cc2)C/C=C\C[C@H]1CC(=O)N(CCO)Cc1ccccc1,14.3,.,0.7,-8.5,-3.5,.,.
CN(C)c1cc[n+](CC(=O)Nc2ccc(Oc3ccccc3)cc2)cc1,-6.9,2.9,-37.2,-1.0,4.5,20.5%,-3.2
CCn1c(CNC(=O)c2cccnc2)cc2ccccc21,-3.9,-0.6,-5.7,0.9,-3.0,.,2.5
NC(=O)CCc1c[nH]c2ccccc12,-14.7,2.9,16.2,1.1,7.6,14.6%,9.7
C=CCn1c(SC(C)C(=O)c2c(N)n(C)c(=O)n(C)c2=O)nnc1-c1ccoc1C (stereo not given),-6.5,.,-6.2,-2.5,2.4,.,.
COc1ccccc1N(O)C1CC(=O)N(c2ccc(F)cc2)C1=O (stereo not given),0.4,0.4,45.2,2.1,4.3,?,?
CN1CCN(S(=O)(=O)c2cc([N+](=O)[O-])ccc2N/N=C/c2ccc(Cl)cc2)CC1,-2.9,2.7,1.6,-1.9,2.3,.,18.3
Cc1ccc(C(=O)Nc2nnc(S(=O)(=O)N3CCC(C)CC3)s2)cc1,-5.0,-0.3,0.8,1.5,0.1,.,-9.9
CC(C)=CCC[C@](C)(O[C@@H]1O[C@H](CO[C@@H]2O[C@H](CO)[C@@H](O)[C@H](O)[C@H]2O)[C@@H](O)[C@H](O)[C@H]1O)C1CC[C@]2(C)C1C(=O)CC1[C@@]3(C)CC[C@H](O[C@H]4O[C@@H](CO)[C@H](O)[C@@H](O)[C@@H]4O)C(C)(C)C3CC[C@]12C (stereo not given in full),0.0,.,-7.5,-2.0,-1.7,.,.
COc1ccc(NC(=O)N2CCC(c3nc(-c4cccs4)no3)CC2)cc1,-0.4,-0.8,-2.7,-3.2,1.9,-5.9%,2.2
COc1ccc(S(=O)(=O)N2CCCC(C(=O)NCCC3=CCCCC3)C2)cc1 (stereo not given),2.0,1.8,6.9,1.5,1.8,0.9%,-9.2
COc1ccccc1OCC(=O)NNC(=O)c1cnccn1,-2.1,-1.2,-3.9,-0.2,-1.6,4.3%,-1.0
Cn1c(/C=N/NC(=O)c2ccccc2Br)nc2ccccc21,-10.4,-4.2,2.6,1.0,0.8,-5.5%,2.4
COc1ccc(/C=C/C(=O)Nc2ccccc2C(N)=O)cc1S(=O)(=O)N1CCOCC1,-8.3,.,.,.,4.2,3.8%,.
O=C(Nc1ccccc1C(F)(F)F)c1cc(-c2ccco2)on1,11.7,0.2,.,3.5,3.5,.,8.9
CN(CC(=O)NNC(=O)CNC(=O)c1ccccc1Cl)S(=O)(=O)c1ccc(Cl)cc1,-5.9,0.1,-4.0,-0.8,0.4,-1.5%,0.1

# 3 compounds picked at random from those above, as already listed:
SMILES,Beta2AR agonist,RanGTP-Imp inh,ALR H2O2 inh,LANA-H2A inh,HNF4A DNA FP,Vif TR-FRET,Calb FLC
Cc1cc(Cl)c(C)c(S(=O)(=O)N2CCN(C(=O)C3CCCO3)CC2)c1Cl (stereo not given),-5.3,.,.,-0.7,3.0,.,.
CC(C)CNC(=S)N1CCC(NC(=O)c2ccco2)CC1,0.5,0.2,-18.5,4.5,-1.6,31.4%,?
CCCCc1nc2ccccc2c(NC(=O)CN(CC)CC)c1CCC,-1.7,0.2,-12.5,-1.6,3.0,0.1%,-1.9

# The list goes on.
SMILES,Beta2AR agonist,RanGTP-Imp inh,ALR H2O2 inh,LANA-H2A inh,HNF4A DNA FP,Vif TR-FRET,Calb FLC
CCOc1ccccc1N1CCN(C(=O)C(Sc2ccccc2)c2ccccc2)CC1 (stereo not given),-0.6,-1.9,-6.3,-1.4,3.2,18.4%,0.1
COC(=O)C1(C(F)(F)F)C2C=CC(C2)N1S(=O)(=O)c1ccc(C)cc1 (stereo not given),0.0,-1.9,2.0,-1.5,-0.3,.,22.7
Cc1ccccc1OCCCC(=O)NCc1ccco1,-3.5,1.0,.,6.9,1.9,31.8%,4.7
CN(C)CCCNC(=O)c1ccc(CN(c2ccccc2)S(C)(=O)=O)cc1,-2.9,2.3,-1.3,7.1,8.5,2.9%,2.6
CN(C(=O)COC(=O)C1=COCCO1)C1(C#N)CCCCC1,7.3,.,-0.1,-1.2,-5.9,-9.8%,.
COc1ccc(NC(=O)C(=O)NNC(=O)c2cccs2)cc1,-7.1,7.1,-12.0,5.9,-2.5,18.9%,12.5
Cc1cc(C)c(C(N)=O)c(Nc2cccc(Cl)c2C)n1,-7.6,6.1,3.2,5.1,4.8,?,-8.3
COc1ccc(C2=NOC(C(=O)Nc3ccc(C(C)=O)cc3)C2)cc1OC (stereo not given),8.1,1.4,-0.4,6.2,4.5,0.7%,-9.2
CC1C(=O)N2CCCc3cc(NS(C)(=O)=O)cc1c32 (stereo not given),-0.1,2.5,-55.6,-3.2,-1.8,.,-10.8
COc1ccc(-c2nc(N)n[nH]2)cc1,3.9,5.1,-10.1,0.2,3.4,2.6%,-0.1
CC1CCCC(C)N1CCCNC(=O)C(=O)Nc1ccc2nc3n(c(=O)c2c1)CCCCC3 (stereo not given),3.4,2.8,-4.2,1.4,3.7,6.1%,-14.8
CCCCc1nnc(NC(=O)c2ccc(OCc3c(C)noc3C)cc2)s1,5.3,.,.,.,0.4,-3.8%,.
COC(=O)c1cc(OC)c(OC)cc1N=CC1=C(O)CC(C)(C)CC1=O,4.3,0.3,-3.8,-7.3,-0.2,-0.5%,6.1
COc1ccc(-c2n[nH]c(=S)n2C2CCCCC2)cc1,-5.5,5.8,88.7*,3.1,-0.9,0.5%,-6.1
Cc1ccc(/C=N/c2sc3c(c2C#N)CCC3)o1,-5.5,5.3,.,-9.9,0.0,?,-21.4
O=C(OCc1c(-c2ccccc2)ncc2ccccc12)c1ccco1,-9.6,.,0.3,2.5,-6.5,.,.
CCCCC1=CC2=CC(=O)C(C)(OC(=O)C3CCCC3)C(=O)C2=CO1 (stereo not given),3.8,-11.6,0.4,-7.3,20.0,15.2µM*,7.2
COc1ccccc1CC(NC(C)=O)C(=O)NC1CCN(C(=O)NCc2ccccc2)CC1 (stereo not given),6.2,1.6,.,.,3.6,.,0.3
CCOc1ccc(CCNS(=O)(=O)c2c(C)n[nH]c2C)cc1OCC,8.9,-3.1,-2.7,-7.4,2.2,-2.7%,1.2
CCCS(=O)(=O)n1nc(-c2ccc(Br)cc2)cc1N,0.6,0.3,-9.9,0.4,-2.1,?,-3.1
COc1ccc(/C=N/Nc2nc(N3CCCC3)nc(N3CCCC3)n2)cc1,-1.8,0.0,9.8,5.7,-2.4,.,-2.7
Cc1cccc(N2CCN(C(=O)CCS(=O)(=O)c3ccc4c(c3)oc(=O)n4C)CC2)c1C,-5.7,7.7,-12.8,2.7,-0.8,.,7.6
C=CC(COCc1ccccc1)N(CC(=O)OC)S(=O)(=O)c1cc(Br)ccc1OC (stereo not given),-17.4,.,-15.6,1.0,-3.6,.,.
CC1(C)CC=CC(COC(=O)c2ccccc2C(=O)O)C1 (stereo not given),-3.8,.,.,.,1.8,3.5%,.
CNCCOc1ccccc1-c1ccccc1,0.0,1.9,-1.9,1.1,2.1,-2.8%,-0.7
CCOC(=O)N1CCC(N2C(=O)c3ccccc3C2Nc2cc(C)cc(C)c2)CC1 (stereo not given),-8.9,0.7,15.7,1.0,-2.6,.,1.8
Cc1ccc(NC(=S)N/C(=N/S(=O)(=O)c2ccccc2)c2ccccc2)cc1,3.8&-1.7,3.9,-8.6,-3.3,-0.2&-0.4,-0.6%&16.5%,4.9
Cc1cc(=O)oc2c3c(cc(OCC(=O)NCCC(=O)O)c12)OC(C)(C)CC3,4.0,-0.2,-24.2,7.6,0.5,-12.3%,4.7
CCOC(=O)N1CCC(N2CCN(c3ccccc3)CC2)CC1,1.3,-1.7,54.7,-5.1,2.0,-2.6%,-0.4
CC1CCCC(C)N1C(=O)c1ccccc1Nc1ccc(SC(F)F)cc1 (stereo not given),7.3,1.5,12.3,3.5,0.3,-3.9%,4.7
N#CCSc1nc2c(cc1C#N)CCCCCC2,21.4,.,-11.1,8.4,-0.5,-6.0%,.
COc1cccc(C(=O)Nc2cccc(-c3ccccc3)c2)c1,1.2,-0.6,-12.5,-6.5,-19.9,.,16.9
CC(C)(C)NC(=O)C(c1ccc(-c2ccccc2)cc1)N(C[C@H]1CC[C@@H]([C@@H]2CC[C@H](CO)O2)O1)C(=O)c1ccccc1F (stereo not given in full),11.5,.,.,.,2.6,-2.3%,.
Cc1ccc(CCN2CCN=C2N(C)C)cc1,3.6,0.8,-8.7,-0.8,-0.4,.,-16.2
Oc1ccccc1-c1nc2c3ccccc3c3ccccc3c2[nH]1,25.7,1.9,10.5,-0.4,-1.1,0.8%,3.3
N#C/C(=C/c1ccc(Sc2nc3ccccc3[nH]2)o1)c1cccc(F)c1,-8.3,4.1,72.8,13.7,12.0,25.4%,8.2
Cc1ccc(C)c(NC2=NCC(=O)N2c2ccc3c(c2)OCCO3)c1,1.0,-0.7,.,1.3,0.5,.,-4.5
CCN(CC)c1ccc(/C=C2\CCC(/C=C(/C#N)C(=O)Nc3ccccc3F)=C2N2CCOCC2)cc1,-5.0,.,.,.,8.8,-7.8%,.
Cc1ccc(NC(=O)COC(=O)c2ccc(Br)o2)cc1S(=O)(=O)N1CCCCC1,-0.2,.,0.8,0.8,4.6,-2.5%,.
O=C(CNC(=O)c1ccccc1Br)N/N=C\c1cc([N+](=O)[O-])cc(Br)c1O,1.1,3.8,.,-1.6,-1.3,.,-14.2
CC1CCN(S(=O)(=O)c2ccc(NC(=O)C3CC(=O)N(c4ccccc4)C3)cc2)CC1 (stereo not given),7.0,5.1,-3.2,-4.8,-2.3,-6.9%,-2.2
